# NS1 function inh: influenza NS1 inhibition; S. cerevisiae slowed by influenza A NS1, growth recovery by OD600; Potency, µM (top dose mostly 46.1 µM), for inactives: at the highest dose activity, positive = more growth; actives 0.4% (n = 270,000); AID 2326; active means well fitted rising curve with a large enough effect; inconclusive means small, poorly fitted or top-dose-only effect; inactive means no such curve, though single readings can be large or run the other way; further: nearly all actives have a fitted effect of over 50% in size
#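 A cell-based growth assay was used: compounds that relieve NS1-induced slow growth of budding yeast raise OD600. Assay medium was yeast nitrogen base with ammonium sulphate and -URA supplement, pH 6.0, with 2% galactose.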
# RE007 growth inh: less growth of the S. pombe RE007 Vpr strain. S. pombe RE007 Vpr strain, BacTiter-Glo ATP luminescence, 24 h; control for the full effect not named in the record. Potency, µM (top dose mostly 92.2 µM), for inactives: at the top dose activity change, negative = less growth. actives 0.21% (n = 360,000). AID 651644; active = well fitted falling curve with a large enough effect; inconclusive = small, poorly fitted or top-dose-only effect; inactive = no such curve, though single readings can be large or run the other way;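 further: on the % scale 0 is the no-effect control and ±100 the full control effect; nearly all actives have a fitted effect of over 50% in size; the assay follows cell death caused by Vpr and the record does not say whether a fall means rescue or toxicity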
#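 Fission yeast RE007 carrying one integrated HIV-1 vpr copy, seeded at OD 0.01 in PMG+AL medium with 23 nL pinned compound. Grown 24 h at 30 degrees; viability read by BacTiter-Glo luminescence after 5 min.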
# StopGo reporter: lowers the luciferase signal of an FMDV 2A StopGo reporter | human cells with a luciferase reporter of 2A StopGo recoding; control for the full effect not named in the record | Potency, µM (top dose mostly 57.9 µM), for the others: at the highest dose signal change, negative = less light | actives 1.2% (n = 410,000); active = well fitted falling curve with a large enough effect; inconclusive = small, poorly fitted or top-dose-only effect; inactive = no such curve, though single readings can be large or run the other way; tested in HEK293T cells; further: on the % scale 0 is the no-effect control and ±100 the full control effect; nearly all actives have a fitted effect of over 45% in size; luciferase light after 4 h
# SARS PLP yeast: SARS-CoV PLP inhibition in yeast. S. cerevisiae expressing SARS-CoV PLpro, growth rescue; control for the full effect not named in the record. Potency, µM (titrated, usually from 32.9 µM), for inactives: top-dose activity, positive = growth rescue. actives 0.19% (n = 330,000). AID 485353; active means well fitted rising curve with a large enough effect; inconclusive means small, poorly fitted or top-dose-only effect; inactive means no such curve, though single readings can be large or run the other way; further: 0% is about no effect; nearly all actives have a fitted effect of over 55% in size; growth read by luminescence after 48 h
# LASV entry inh: Lassa virus entry inhibition. Lassa virus pseudotype entry inhibition, cell reporter; control for the full effect not named in the record. Potency, µM (titrated, usually from 37.9 µM), for the others: top-dose activity change, negative = inhibition, actives largely listed as inhibitors. actives 1.2% (n = 300,000). AID 540256; active means well fitted inhibition curve with a large enough effect; inconclusive means small, poorly fitted or top-dose-only effect, or effect the other way; inactive means flat fitted curve, though single readings scatter; tested in HEK293 cells; further: on the % scale 0 is the no-effect control and ±100 the full control effect; nearly all actives have a fitted effect of over 50% in size; luciferase read-out
# Cruzain Triton: inhibitors of Trypanosoma cruzi cruzain with detergent | P25779 | purified cruzain, Z-FR-AMC fluorescence, 0.01% Triton | Potency, µM, for the others: max response, negative = inhibition, hits mostly inhibitors | actives 0.43% (n = 200,000) | AID 1478;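 further: plate controls were neutral wells for no effect and buffer without enzyme for full effect; nearly all actives have a fitted effect of over 40% in size; top concentration of the series not given in the record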
# Target sequence (P25779 123-467 limits assumed): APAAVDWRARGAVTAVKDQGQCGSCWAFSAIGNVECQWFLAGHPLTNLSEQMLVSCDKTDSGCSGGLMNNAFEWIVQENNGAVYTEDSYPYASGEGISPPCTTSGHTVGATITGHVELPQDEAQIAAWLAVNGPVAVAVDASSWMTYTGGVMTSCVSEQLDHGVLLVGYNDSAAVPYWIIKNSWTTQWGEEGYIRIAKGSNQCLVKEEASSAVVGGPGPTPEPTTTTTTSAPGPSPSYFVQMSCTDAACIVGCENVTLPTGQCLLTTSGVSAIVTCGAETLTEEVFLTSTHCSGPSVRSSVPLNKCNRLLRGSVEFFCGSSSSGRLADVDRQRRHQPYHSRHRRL
#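 Purified cruzain (1.5 nM final) was preincubated with compounds for 15 min at room temperature in 100 mM sodium acetate pH 5.5, 5 mM DTT, 0.01% Triton X-100. Reaction started with 2 uM Z-FR-AMC; AMC fluorescence change over 60 s gave activity.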
# Marburg entry inh: Marburg virus entry inhibition; Marburg virus pseudotyped entry inhibition, cell reporter; control for the full effect not named in the record; about a third of the inactives were read at about 46 µM; actives 1.8% (n = 300,000); Potency, µM (titrated, usually from 37.8 µM), for inactives: at the highest dose activity change, negative = inhibition, hits mostly inhibitors; AID 540276; active = well fitted inhibition curve with a large enough effect; inconclusive = small, poorly fitted or top-dose-only effect, or effect the other way; inactive = flat fitted curve, though single readings scatter; tested in HEK293 cells; about a fifth of its hits are not listed in these tables; further: on the % scale 0 is the no-effect control and ±100 the full control effect; luciferase read-out
# Cruzain inh noDet: cruzain (T. cruzi) inhibition without detergent; actives 2.3% (n = 200,000); purified cruzain, Z-FR-AMC fluorescence, no detergent; Potency, µM, for the others: max response, negative = inhibition, actives largely listed as inhibitors; P25779;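 further: plate controls were enzyme without inhibitor for no effect and buffer without enzyme for full effect; nearly all actives have a fitted effect of over 40% in size; top concentration of the series not given in the record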
#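 Purified cruzain at 1.5 nM, pre-incubated 15 min with compound at room temperature in 100 mM sodium acetate pH 5.5, 5 mM DTT, 0.00005% Triton X-100. Reaction started with 2 uM Z-FR-AMC; AMC fluorescence increase over 60 s gives rate.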
# * hit, by the source's call; ? = inconclusive; / = not tested or not shown; [ ] = remark or other dose. Unless noted, the call rests on the fitted dose curve; in most records, active means well fitted curve in the direction sought with a large enough effect; inconclusive means small, poorly fitted or top-dose-only effect, or another doubt; inactive means no such curve, though single readings can be large; an effect the other way counts as inactive or inconclusive. Potency means the concentration at half of the fitted maximal effect. The order is random; about 4.7% have a hit in one of these screens.
# Each structure is followed by: NS1 function inh, RE007 growth inh, StopGo reporter, SARS PLP yeast, LASV entry inh, Cruzain Triton, Marburg entry inh, Cruzain inh noDet
> COc1ccccc1CNC(=O)c1ccc2c(c1)nc(C)n2-c1ccccc1OC
 : /, /, -2%, /, 4%[46.1 µM], -3.2%, /, 9%
> O=C(NNC(=S)NC(=O)c1sc2ccccc2c1Cl)c1ccc(Cl)cc1
 : -10%, 57%, 0%, 28%, -20%, -0.1%, ?, ?
> C=CCN1CN(CCc2ccccc2)CNC1=S
 : -5%, 8%, -13%, 3%, ?, /, 11%[46.1 µM], /
> CC(NC(=O)c1ccco1)c1nc(-c2ccc(C(C)(C)C)cc2)no1 (configuration not stated)
 : -7%, -8%, 3%, -5%, -24%[46.1 µM], /, ?, /
> COCCCNC(=O)CC(NS(=O)(=O)c1ccc(F)cc1)c1ccc(OC)cc1 (configuration not stated)
 : -1%, 0%, /, -2%, 0%, 0.3%, -17%, 0%
> NC(=S)c1ccc[n+]([O-])c1
 : /, -19%, -5%, /, 5%, /, 12%, /
> COc1cc(NC(=O)c2cc3ccc4cccnc4c3[nH]2)cc(OC)c1OC
 : /, /, -2%, /, 20%[46.1 µM], -15%, /, ?
> O=C(Nc1ccc(OC(F)(F)F)cc1)C1CCCN(S(=O)(=O)c2cnc[nH]2)C1 (configuration not stated)
 : -9%, 10%, -8%, 1%, /, /, /, /
> CCC(C)NC(=O)Nc1ccc(Br)cc1Cl (configuration not stated)
 : 4%, -5%, -15%, -1%, ?, /, ?, /
> NS(=O)(=O)c1ccc(CCNC(=O)Cc2ccc(S(=O)(=O)N3CCCC3)s2)cc1
 : 0%, 8%, 2%, 0%, 10%, /, 6%[46.1 µM], /
> CCN(CC)S(=O)(=O)c1ccc(/C=C/C(=O)Nc2ccccc2N2CCOCC2)cc1
 : 3%, -5%, -13%, -1%, ?, /, ?, /
> COCC1CCCN(Cc2nc(Cc3ccccc3)no2)C1 (configuration not stated)
 : -3%, 15%, 22%, 1%, -21%, /, 18%[46.1 µM], /
> O=C(NCCO)C1CCN(C(=O)c2ccc(-c3ccccc3)cc2)CC1
 : -1%, -4%, 1%, 0%, ?, /, ?, /
> Cc1c(OCc2ccccc2)c(=O)ccn1Cc1ccc(Cl)cc1
 : -73%, 26%, ?, 0%, 5%, -7.6%, -5%, 17%
> N#Cc1c(-c2ccc(Cl)cc2)cc(-c2cccs2)nc1SCC(=O)O
 : 1%, -4%, -9%, 0%, -25%[46.1 µM], /, -4%[46.1 µM], /
> Cc1ccccc1NC(=O)NCC1CCCO1 (configuration not stated)
 : -15%, 7%, -5%, /, 13%, 15%, 8%, 4%
> C/C(Cl)=C/CSc1nn2c(=O)c3ccccc3nc2s1
 : -65%, -28%, 26%, -10%, 5%, -3.5%, 5%, -5%
> COC(=O)COc1ccc(S(=O)(=O)Nc2ccc3c(c2)OCO3)cc1Cl
 : -27%, -5%, 15%, -6%, -20%, -3.0%, 12%, -9%
> O=C(OCCn1cncn1)c1cc2ccccc2oc1=O
 : ?, 3%, -1%, 4%, -2%, -6.4%, 8%, 2%
> Cc1nc2c(C(=O)N3CCC4(CC3)OCCO4)cnn2c(C)c1Cc1cccc(Cl)c1
 : /, 23%, 33%[activator], -5%, -29%[46.1 µM], /, -17%[46.1 µM], /
> COc1ccccc1N(CC(O)COc1c(C)cc(C)cc1C)S(=O)(=O)c1ccccc1 (configuration not stated)
 : 16%, -8%, ?, -11%, ?, -8.1%, ?, 6%
> O=C(CSc1nc(=O)n(CCCN2CCOCC2)c2c1CCCC2)Nc1ccc(F)cc1
 : /, -13%, 9%, 3%, -14%, /, -12%, /
> NC(=O)CC(NC(=O)c1ccccc1)c1ccc(NCCOc2ccccc2)c([N+](=O)[O-])c1 (configuration not stated)
 : -2%, -7%, 0%, 1%, /, /, /, /
> CCC1(COC(=O)Nc2cccc(Cl)c2)COC1
 : -44%, -22%, 26%, -3%, 14%, 1.3%, -1%, 9%
> Cc1cc(C(=O)Nn2cnnc2)ccc1[N+](=O)[O-]
 : 2%, 3%, 15%, 2%, /, /, /, /
> COC(=O)CSc1nnc(CNC(=O)c2cc(OC)c(OC)c(OC)c2)n1C
 : -2%, -3%, 6%, -2%, 8%, 3.2%, 14%, -8%
> Cc1ccc(NC(=O)COC(=O)c2ccn(C)n2)cc1
 : -13%, 9%, /, 5%, ?, 4.4%, 14%, -7%
> Cc1cc(C)c(OCC(=O)Nc2ccc(NC(=O)c3ccco3)cc2)c([N+](=O)[O-])c1
 : -20%, 28%, -25%, 12%, -1%, -3.8%, -15%, -20%
> COc1ccc(S(=O)(=O)N2CCN(c3ncccn3)CC2)cc1OC
 : -6%, 1%, -11%, 12%, 6%, /, 2%, /
> COc1ccc(Br)cc1CNC(=O)c1ccc2c(c1)nc1n2CCC(C)C1 (configuration not stated)
 : /, /, -5%, /, 8%[46.1 µM], 2.8%, /, -11%
> N#Cc1ccc(NC(=S)Nc2ccccc2)cc1
 : 11%, -4%, 0%, -3%, -1%, -1.9%, -19%, -7%
> Cc1ccccc1CS(=O)(=O)CCC(=O)NCc1ccccn1
 : -11%, -14%, -14%, -5%, 6%, 3.2%, 12%, -14%
> COc1ccc(-c2cn(-c3ccc(SC(F)F)cc3)c3[n+]2CCC3)cc1OC
 : 11%, 4%, -11%, -9%, 18%, -5.9%, ?, 4%
> COc1ccccc1-c1cc(C(F)(F)F)n2ncc(S(=O)(=O)c3ccccc3)c2n1
 : -3%, 12%, 11%, -14%, ?, -11%, ?, -13%
> CCCCCc1ccc(S(=O)(=O)NCCc2ccncc2)cc1
 : -53%, -8%, 29%, -19%, 2%, 0.1%, -20%, -6%
> O=C(Nc1ccnn1C1CCN(C(=O)c2cccc(C(F)(F)F)c2)CC1)C1CC1
 : 0%, -15%, -10%, -2%, 5%, /, -1%, /
> Cc1ccccc1NC(=O)CSc1nc(O)cc(=O)n1C
 : 17%, -6%, -7%, 1%, 5%, /, 7%, /
> O=C(C1CCCO1)N1CCN(C(=S)Nc2cccc(F)c2)CC1 (configuration not stated)
 : 13%, 2%, -8%, 17%, 3%, /, 11%, /
> CCCCn1c(SCC(=O)NCc2ccccc2)nc2ccc(N3CCOCC3)cc2c1=O
 : 5%, 3%, -11%, 2%, -9%, -3.2%, ?, 14%
> CC(CNC(=O)C1CCN(Cc2cc3ccccc3n2Cc2ccccc2)CC1)c1ccccc1 (configuration not stated)
 : /, /, ?, /, ?, -4.2%, /, -21%
> O=C(NC1CCCC1)[C@@H]1CSC2c3ccccc3C(=O)N21 (some centres not stated)
 : 15%, 3%, -2%, 5%, /, /, /, /
> CC(NC(=O)c1cc(Br)ccc1Cl)c1ccccc1 (configuration not stated)
 : 1%, 11%, -9%, -1%, -15%[46.1 µM], /, ?, /
> O=c1ccnc(NCCc2ccccc2)[nH]1
 : 9%, 12%, -7%, 4%, 5%, 2.1%, 17%, -4%
> O=C(CCS(=O)(=O)c1nc(-c2cccs2)cc(C(F)(F)F)n1)Nc1ccc(F)c(Cl)c1
 : /, /, 35µM*, /, ?, -14%, 27%[46.1 µM], ?
> CSCCC(/C(O)=C(\C#N)c1nc2ccccc2[nH]1)N1C(=O)c2ccccc2C1=O (configuration not stated)
 : -10%, 2%, 0%, 7%, 0%, -4.3%, -2%, -13%
> COc1ccc2nc(SCC(=O)Nc3cc(C)on3)c(C#N)cc2c1
 : 7%, -10%, 16%, -2%, ?, /, ?, /
> Cc1ccc(OCc2ccc(C(=O)NCc3cccnc3)cc2)cc1C
 : -12%, 32%, -16%, -1%, 7.9µM*, /, 8.9µM*, /
> CCc1ccc(NC(=O)c2cc3nc(-c4ccc(C)cc4)cc(C(F)(F)F)n3n2)cc1
 : /, /, -15%, /, 1%[46.1 µM], 0.2%, -20%[46.1 µM], ?
> O=C(c1cc2c(Cl)nc3ccccc3c2s1)N1CCCCC1
 : /, /, 56%[activator], /, 0%[46.1 µM], -3.1%, ?, -8%
> COc1cccc(NC(=O)CN2C(=O)COc3ccc(S(=O)(=O)N4CCC(C)CC4)cc32)c1
 : 0%, 13%, -22%, 0%, /, /, /, /
> CCN1CCN(CCc2nc3cc(NC(=O)COc4ccccc4)ccc3n2C)CC1
 : 0%, 7%, 3%, 4%, 0%[46.1 µM], /, -6%[46.1 µM], /
> Cc1cc(C)c(NC(=O)CSc2nnc(-c3ccncc3)n2Cc2ccco2)c(Cl)c1
 : 16%, 7%, 1%, 11%, 4%, -4.2%, 8%, 0%
> O=C(Nc1c(C(=O)N2CCOCC2)cnn1-c1ccccc1)c1ccc(F)cc1
 : -8%, -6%, -13%, 6%, -23%, /, -9%, /
> O=C(c1cnc2nc3ccccc3n2c1)c1cc(F)ccc1O
 : 1%, -11%, 52%[activator], 0%, ?, /, 17%, /
> COc1cccc(C2(C#N)CCN(C)CC2)c1
 : /, 14%, 10%, 4%, -5%, /, -3%[46.1 µM], /
> CC(=O)N1CCN(c2ccc(N=Cc3c(O)n(-c4ccc(Cl)cc4)c(=O)[nH]c3=O)cc2)CC1
 : -17%, 0%, -15%, -9%, -15%, -4.4%, ?, 10%

# Compound activity as filed in PubChem BioAssay.
